Screens (PubChem)
ClpP mod = qHTS Assay for Activators of ClpP | ATP-dependent Clp protease proteolytic subunit (Bacillus subtilis (strain 168)), P80244 | purified B. subtilis ClpP, FRET peptide cleavage, 20 min | Potency, µM (titrated, usually from 57.5 µM), inactives show top-dose activity change, negative = active | 340,000 compounds, 1.9% hits | AID 651965, 2013; active = well fitted falling curve with a large enough effect; inconclusive = small, poorly fitted or top-dose-only effect; inactive = no such curve, though single readings can be large or run the other way; further: potency means the concentration at half of the fitted maximal effect; the source files actives as falling curves though it sought activators and does not explain the sign; nearly all actives have a fitted effect of over 65% in size; many hits overshoot -100%
Target sequence (P80244 whole entry, looked up): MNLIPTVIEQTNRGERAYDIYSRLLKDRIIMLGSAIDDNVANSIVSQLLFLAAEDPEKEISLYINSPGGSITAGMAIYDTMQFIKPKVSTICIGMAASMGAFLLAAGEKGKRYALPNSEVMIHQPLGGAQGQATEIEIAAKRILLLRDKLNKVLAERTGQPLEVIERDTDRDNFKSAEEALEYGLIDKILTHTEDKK
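Purified B. subtilis ClpP, 10 microg/mL final in Tris/HCl pH8 with KCl, BSA, glycerol and Tween-20, cleaved an Abz/nitrotyrosine-quenched decapeptide. Fluorescence (ex 320, em 430) was read at 0 and 20 min at room temperature. Delta was normalized to 5.8 microM ADEP and DMSO/no-enzyme controls.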
gsp agonist = qHTS for Agonist of gsp, the Etiologic Mutation Responsible for Fibrous Dysplasia/McCune-Albright Syndrome: qHTS | gsp mutant cells, cAMP HTRF, 30 min; control for the full effect not named in the record | Potency, µM (series often up to 76.9 µM), for inactives: at the highest dose activation (cAMP increase), actives largely listed as activators | 340,000 compounds, 0.13% hits | AID 624287, 2012; active = well fitted activation curve with a large enough effect; inconclusive = small, poorly fitted or top-dose-only effect, or another doubt; inactive = no such curve, though single readings can be large or run the other way; cell line not stated here;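 further: phosphodiesterase inhibitor Ro 20-1724 added with compounds to block cAMP breakdown; potency means the concentration at half of the fitted maximal effect; nearly all actives have a fitted effect of over 60% in size; about a fifth of the inactives were tested at one dose only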
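Cells stably selected in G418 were plated at 2000/well, grown 16-24 hr, then given compounds in DMSO with the PDE inhibitor […] (300 uM solution added) for 30 min at 37C; cAMP was read by HTRF.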
Sfp PPTase inh = qHTS Assay for Inhibitors of Bacillus subtilis Sfp phosphopantetheinyl transferase (PPTase); Biochemical Sfp PPTase activity, qHTS; 4'-phosphopantetheinyl transferase ffp (Bacillus subtilis), Q9F4F7; Potency, µM, for the others: max response, negative = inhibition, usual class: inhibitors; 310,000 compounds, 3.5% hits; AID 1490, 2009; active means well fitted inhibition curve with a large enough effect; inconclusive means small, poorly fitted or top-dose-only effect, or another doubt; inactive means no such curve, though single readings can be large or run the other way;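 further: the enzyme is Sfp with the accession as filed and its product quenches rhodamine fluorescence; potency means the concentration at half of the fitted maximal effect; 0% = enzyme reaction without inhibitor and -100% = no enzyme wells; top concentration of the series not given in the record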
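After 15 min at room temperature with compound, 15 nM Sfp received 5 uM rhodamine-CoA plus 12.5 uM BHQ-2-ybbR (50 mM Hepes pH 7.6, 10 mM MgCl2). Rate came from the fluorescence difference over 30 min, ex 525/em 598 nm.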
D2 PAM = Beta-Arrestin HTS for Positive Allosteric Modulators of the Human D2 Dopamine Receptor: Potentiators; 360,000 compounds, 0.23% hits; DiscoveRx D2 beta-arrestin cells, luminescence, 90 min; 100% = 57 uM dopamine signal; potentiation, % (test concentration not listed); AID 624464, 2012; D(2) dopamine receptor (Homo sapiens), P14416; active = potentiation of 50% or more; inconclusive = 30% to 50%; inactive = 30% or less;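 further: compound concentration not given in the record; tested on top of an EC20 dose of dopamine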
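PathHunter D2 cells, attached overnight at 37 deg C, received compound in DMSO plus dopamine at EC20 (50 nM final) for 90 min at 37 deg C. Beta-arrestin recruitment was read as luminescence after 1 h with detection reagent at ambient temperature.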
Menin MLL FP FL = qHTS Assay for Inhibitors Targeting the Menin-MLL Interaction in MLL Related Leukemias: Competition With Fluorescein Labeled MLL-derived Peptide. Fluorescence polarization, fluorescein-MLL peptide displacement from menin. FP activity change, % at 61.4 µM. 290,000 tested, under 10 active; inconclusive = falling polarisation curve, or a change in total fluorescence; inactive = total fluorescence flat and polarisation flat or rising; no compound was filed as active; the % refers to the polarisation; negative = inhibition;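 further: % of control where 0% means no effect; inhibitors lower the polarisation; unlabelled MLL peptide was the positive control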
TRPV1 potentiator = HTS Assay for Compounds that Act as Potentiators of the Vanilloid Receptor 1 | potentiation, % at 8.33 µM | AID 540277, 2011 | 320,000 compounds, 0.02% hits | Transient receptor potential cation channel subfamily V member 1 (Homo sapiens), Q8NER1 | TRPV1-expressing cells, Fluo-8 calcium influx, capsaicin EC20 potentiation; host cell line not named in the record; control for the full effect not named in the record; active means potentiation above 80%; inconclusive means 30% to 80%; inactive means below 30%; further: 0% is about no effect
Target sequence (Q8NER1 whole entry, looked up): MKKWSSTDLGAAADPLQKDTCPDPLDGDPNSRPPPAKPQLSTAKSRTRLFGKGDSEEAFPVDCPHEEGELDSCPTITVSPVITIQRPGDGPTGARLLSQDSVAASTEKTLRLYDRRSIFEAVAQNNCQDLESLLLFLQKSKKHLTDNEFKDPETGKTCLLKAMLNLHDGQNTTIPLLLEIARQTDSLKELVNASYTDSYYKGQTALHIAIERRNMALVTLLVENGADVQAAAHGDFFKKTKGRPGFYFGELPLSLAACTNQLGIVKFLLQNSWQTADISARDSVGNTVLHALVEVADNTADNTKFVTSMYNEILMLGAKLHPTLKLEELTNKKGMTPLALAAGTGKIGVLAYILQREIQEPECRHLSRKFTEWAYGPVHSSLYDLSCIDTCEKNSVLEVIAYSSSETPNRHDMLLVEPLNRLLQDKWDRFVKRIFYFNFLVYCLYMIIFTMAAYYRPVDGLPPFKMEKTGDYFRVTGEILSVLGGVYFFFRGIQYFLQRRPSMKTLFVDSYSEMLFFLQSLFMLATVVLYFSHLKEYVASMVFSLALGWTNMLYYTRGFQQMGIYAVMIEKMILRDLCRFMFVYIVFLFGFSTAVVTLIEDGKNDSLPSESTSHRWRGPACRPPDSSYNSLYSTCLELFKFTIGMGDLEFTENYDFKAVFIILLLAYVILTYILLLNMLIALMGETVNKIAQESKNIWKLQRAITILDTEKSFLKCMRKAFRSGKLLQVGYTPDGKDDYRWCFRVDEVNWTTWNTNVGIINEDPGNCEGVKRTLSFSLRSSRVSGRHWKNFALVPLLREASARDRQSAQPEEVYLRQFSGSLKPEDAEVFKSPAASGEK
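Cells expressing TRPV1 were dye-loaded with Fluo-8 and read kinetically: 10 s baseline, 3 min after compound (agonist portion), then 2 min after EC20 capsaicin (allosteric enhancer portion). Calcium-bound dye fluorescence at 480/520 nm.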
gsp antagonist = qHTS for Antagonists of gsp, the Etiologic Mutation Responsible for Fibrous Dysplasia/McCune-Albright Syndrome: qHTS. gsp-mutant cells, cAMP HTRF, 30 min; control for the full effect not named in the record. Potency, µM (series often up to 76.9 µM), for the others: at the highest dose activity change, negative = inhibition, actives largely listed as inhibitors. 340,000 compounds, 0.4% hits; active = falling curve of any shape with a large fitted effect; inconclusive = falling curve, mostly with a smaller effect; inactive = flat or rising curve; cell line not stated here;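 further: intracellular cAMP measured with PDE inhibitor Ro 20-1724 present during compound exposure; potency means the concentration at half of the fitted maximal effect; on the % scale 0 is the no-effect control and ±100 the full control effect; nearly all actives have a fitted effect of over 65% in size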
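Cells in G418 medium, seeded 16-24 h, 37C; buffer exchange to DPBS + 1 mM CaCl2, 0.5 mM MgCl2, 0.05% BSA; cpds in DMSO + […] (300 uM stock), 30 min 37C; HTRF cAMP detection.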
* = called active by the depositor; ? = inconclusive; / = no result given; [ ] = another dose, or the depositor's remark. Rows were taken by chance; overall some 5.1% were active at least once.

The line under a structure holds: ClpP mod	gsp agonist	Sfp PPTase inh	D2 PAM	Menin MLL FP FL	TRPV1 potentiator	gsp antagonist
1	Cc1ccc(N(CC(O)CN2CCOCC2)S(=O)(=O)c2ccc3ccccc3c2)cc1 (stereo not given)
 : 0.4%	3%	8%	-8	0.3	4	-7%
2	NS(=O)(=O)c1ccc(CNC(=O)NC2(c3ccccc3)CC2)cc1
 : 1.2%	-25%	28%	0	0.6	-8	2%
3	Cc1ccccc1OCCC(=O)OCC(=O)N(C)c1c(N)n(Cc2ccccc2)c(=O)[nH]c1=O
 : 0.8%	-19%	5%	0	-0.1	14	8%
4	O=C(NCCC1CC1(Cl)Cl)Nc1ccccc1 (stereo not given)
 : /	-3%[15.4 µM]	6%	-10	1.8	-12	15%
5	Fc1cccc(F)c1/C=C/c1ccc2ccccc2n1
 : -23%	-13%	-8%	-3	5.6	-6	-3%
6	CN(C)c1ccc(N=c2sc3ccccc3n2C)cc1
 : 0.3%	-14%	13%	1	2.4	-5	-24%
7	COC(=O)c1ccc(NC(=S)NNC(=O)CC(C)C)cc1
 : 0.7%	5%	45µM*	-34	3.4	5	-4%
8	CC(=O)n1c(C=Nc2ccccc2)c(O)c2ccccc21
 : /	-6%[15.4 µM]	?	-7	?	-4	-21%
9	O=C1C(=O)c2ccc(-c3ccccc3)cc2-c2ccccc21
 : 6.7%	-5%	1%	?	-9.0	1	14%
10	CCCOC(=O)c1ccc(Oc2c(-c3ccc(OCC)cc3O)n[nH]c2C)cc1
 : -1.3%	-35%[inhibitor]	37%[activator]	-11	3.7	-24	-9%
11	CN1CCN(C(=S)NC(=O)c2ccccc2Cl)CC1
 : -2.2%	-44%[inhibitor]	-28%	-11	/	10	2%
12	O=C(CC1C(=O)NCCN1CC(c1ccccc1)c1ccccc1)NC1CC1 (stereo not given)
 : /	-3%	-2%	-7	-6.1	9	6%
13	CC(C)c1nc2n[nH]c(N)c2c2c1CCC2
 : 0.7%	-31%[inhibitor]	12%	-13	2.7	5	1%
14	COc1ccc(/C=N/OCC(=O)NCC(C)C)c(OC)c1
 : /	0%	6%	5	-7.1	1	-7%
15	Cc1ccccc1N1CCN(c2ncnc3c2cnn3Cc2ccc(Cl)cc2)CC1
 : ?	1%	3%	7	0.4	?	-6%
16	CCCCCCCNC(=O)C1(CC2CC(c3cccc(Br)c3)=NO2)CCN(C(=O)C2(C)CC2)CC1 (stereo not given)
 : 0.3%	-21%	/	-16	/	-29	-16%
17	CC(C)C(=O)Nc1ccc(C(=O)NNC(=O)CCc2ccccc2)cc1
 : -1.8%	22%	20%	1	0.7	-2	-11%
18	O=C1C(Cl)=C(N2CCOCC2)C(=O)N1CCc1ccccc1
 : -1.9%	-68%[inhibitor]	4%	-5	6.3	-21	-4%
19	COc1ccc(Cl)cc1NC(=O)c1ccc2c(SCC(=O)O)c3c(nc2c1)CCCC3
 : 1.5%	-3%	-1%	-9	/	15	-2%
20	O=C(COc1ccc(S(=O)(=O)NC2CCCCC2)cc1Cl)Nc1ccc2c(c1)OCO2
 : -0.4%	-25%	22%	1	0.8	9	-11%
21	Cc1cc(=O)oc2cc(OC(C)C(=O)O)c(Cl)cc12 (stereo not given)
 : 28µM*	-66%[inhibitor]	21%	-8	12	-8	-6%
22	CSCc1cc(N2CCOCC2)nc(SCc2ccc(Cl)c(Cl)c2)n1
 : -1.7%	-6%	-14%	-8	8.6	9	5%
23	Cc1ccccc1Cc1ccc(Cl)nn1
 : /	-16%[15.4 µM]	7%	-7	-1.7	8	15%
24	N#Cc1ccccc1S(=O)(=O)c1ccccc1C(=O)Nc1ccccc1
 : /	1%[15.4 µM]	11%	2	-1.1	2	-1%
25	CCOC(=O)c1[nH]c2ccc(F)cc2c1NC(=O)C1=COCCO1
 : -21%	20%	3%	-15	2.9	-16	-4%
26	Cc1c(-c2ccco2)[n+](=O)c2c(n1[O-])CCC2
 : -1.0%	26%	2%	-14	-2.7	10	9%
27	Cc1nc(C)c(-c2nnc(-c3ccccc3Cl)o2)cc1C(=O)NN
 : -2.6%	?	10%	-2	-3.8	11	-10%
28	CC(=O)Nc1ccc(NC(=O)CSc2nnc3c4ccccc4n(C)c3n2)cc1
 : /	20%[15.4 µM]	0%	-5	-2.0	-1	5%
29	COc1ccc(OC)c(NC(=O)NCc2cccnc2)c1
 : -1.7%	-1%	12%	-33	-0.1	1	14%
30	COC(=O)CC1COc2ccccc2N1C(=O)c1cc(OC)c(OC)c(OC)c1 (stereo not given)
 : 1.4%	-45%[inhibitor]	10%	-22	-1.7	-8	-6%
31	COc1ccc(/C=C(\C#N)C(=O)NC(C)c2ccccc2)cc1O (stereo not given)
 : /	5%[15.4 µM]	-16%	-4	-0.3	2	-8%
32	C/C(=N\NC(=O)c1ccc(C)cc1)c1c(C)[nH]n(-c2ccccc2)c1=O
 : 13%	3%	11%	-9	4.3	-15	-12%
33	Cc1cc(C(=O)C(C)Sc2cccc[n+]2[O-])c(C)n1-c1ccc(Cl)cc1 (stereo not given)
 : -2.7%	-6%[15.4 µM]	-4%	-6	-0.3	4	14%
34	CC(C)Cc1ccc(CN2CCCC(NC(=O)c3nn(C)c(=O)c4ccccc34)C2)cc1 (stereo not given)
 : 0.9%	-45%[inhibitor]	2%	-10	-2.6	-19	-8%
35	CCOC(=O)C1(C)NC(c2ccc(OC)cc2OC)C2C(=O)N(CC)C(=O)C21 (stereo not given)
 : 2.3%	23%	8%	-11	-0.8	-7	-8%
36	Cc1cc(N2CCN(c3ccccc3)CC2)nc(N2CCOCC2)n1
 : /	-3%[15.4 µM]	1%	-6	-0.8	-19	6%
37	Cc1ccsc1/C=N/n1c(-c2ccco2)n[nH]c1=S
 : -0.4%	-6%	-14%	1	-7.4	-20	-2%
38	CC(=O)c1cccc(N(C(=O)Cn2nnc3ccccc32)C(C(=O)NCC2CCCO2)c2ccc(N3CCOCC3)cc2)c1 (stereo not given)
 : /	16%[15.4 µM]	8%	-8	-1.7	5	4%
39	O=C(Cc1c(O)c2ccccc2[nH]c1=O)NCc1ccccc1
 : 20µM*	28%	9%	-8	7.0	6	9%
40	CC(C)C[C@H](NC(=O)C1CCN(C(=O)[C@H](Cc2ccccc2)NC(=O)OC(C)(C)C)CC1)C(=O)O
 : 0.5%	15%	13%	-9	2.2	21	3%
41	COc1ccc(Cl)cc1C(=O)NNC(=S)NC1CCCC1
 : /	-10%	23%	-13	-3.0	-13	-2%
42	CCOc1ccc(CC(=O)NC2CC(C)(C)N(C)C(C)(C)C2)cc1OCC
 : 2.8%	-17%	/	4	/	-4	-6%
43	CCOc1ccc(S(=O)(=O)NCCC(=O)OC(C)C(=O)N2CCc3ccccc32)cc1 (stereo not given)
 : -0.3%	-4%	-10%	-8	1.3	-1	?
44	COc1ccc(NC(=O)CSc2nccn2Cc2ccco2)cc1
 : -1.0%	?	-4%	-13	/	0	-9%
45	O=C(CN1C(=O)NC2(CCOc3ccccc32)C1=O)N1CCCCC1 (stereo not given)
 : -2.9%	-1%	/	-12	/	/	9%
46	CCCCOc1ccc(C(=O)NCC(=O)NCc2ccncc2)cc1
 : 32µM*	11%	/	5	/	-11	8%
47	O=C(NC1CC1)C1CCCN1C(=O)NC1CCCCC1 (stereo not given)
 : -2.0%	-18%	18%	-2	2.2	-19	10%
48	COc1ncnc2c1ncn2CCCN(CCCc1ccccc1)CCCn1cnc2c(OC)ncnc21
 : -0.7%	14%	/	-1	/	/	/
49	Cc1ccc(S(=O)(=O)N2CCCOC2CNC(=O)C(=O)NCc2cccnc2)cc1 (stereo not given)
 : 0.9%	-1%	7%	-2	-1.5	-52	13%
50	Cc1nc2ccccn2c1C(=O)NN=C1C2CC3CC(C2)CC1C3
 : 1.3%	27%	-15%	-7	/	-1	-5%
51	CCOC(=O)c1c[nH]c(=S)n(-c2ccccc2)c1=O
 : -1.1%	14%	/	-6	/	?	4%
52	Cc1cnc(C(=O)OCC(=O)N2c3ccccc3CC2C)cn1 (stereo not given)
 : /	10%[15.4 µM]	15%	6	-0.6	1	0%
53	CCn1c(NC(=O)Nc2ccccc2OC)nc2ccccc21
 : -4.0%	4%	3%	-10	-0.6	6	5%
54	Cc1ccsc1/C=N/Nc1nc(=O)[nH]nc1C
 : /	4%	12%	-14	0.5	1	3%
55	O=C(Nc1ccccc1)N1CCCC1
 : 1.2%	-38%[inhibitor]	2%	-7	-0.8	14	8%
56	CCCCn1c(=O)[nH]c(=O)c2c1nc(-c1ccncc1)n2CCOC
 : ?	-12%	11%	-7	1.9	10	-6%
57	Cc1ccc(NC(=O)CN(C)C(=O)c2ccc(COc3ccccc3)cc2)cc1
 : /	8%[15.4 µM]	/	0	/	?	-7%
58	Cc1ncc([N+](=O)[O-])n1Cc1cccc2ccccc12
 : -1.7%	11%[15.4 µM]	13%	-4	2.7	10	0%
59	CCc1cccc(CC)c1N(COC)C(=O)Cn1nnc2ccccc21
 : 0.3%	-4%	9%	-6	1.4	-2	-11%
